INS promoter inh – inhibitors of insulin promoter-driven GFP, primary screen, imaging, TRM-6 cells (human fetal islet line), eGFP reporter, cell count | inhibition, % at 2 µM | reporter expression induced with tamoxifen | actives 0.9% (n = 130,000);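 active means inhibition above the mean plus 3 SD, with well images judged a real hit on visual review, cut at about 60% in these data, passing the limit was not always enough; inconclusive means inhibition over the cutoff but images rejected on review; inactive means inhibition not above the cutoff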
GALR2 agonist – GALR2 receptor agonists, primary screen, cell-based. Galanin receptor type 2 (Homo sapiens), O43603. GALR2-expressing cells, agonist activation read-out. activation, %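 (tested at 5 µM)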. actives 0.48% (n = 140,000);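 active means above mean plus 3 SD of all compounds, about 5% in these data, not always enough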;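 further: 0% = vehicle buffer wells and 100% = reference agonist at full effect; tested in CHO reporter cells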
Target sequence (O43603 whole entry, looked up): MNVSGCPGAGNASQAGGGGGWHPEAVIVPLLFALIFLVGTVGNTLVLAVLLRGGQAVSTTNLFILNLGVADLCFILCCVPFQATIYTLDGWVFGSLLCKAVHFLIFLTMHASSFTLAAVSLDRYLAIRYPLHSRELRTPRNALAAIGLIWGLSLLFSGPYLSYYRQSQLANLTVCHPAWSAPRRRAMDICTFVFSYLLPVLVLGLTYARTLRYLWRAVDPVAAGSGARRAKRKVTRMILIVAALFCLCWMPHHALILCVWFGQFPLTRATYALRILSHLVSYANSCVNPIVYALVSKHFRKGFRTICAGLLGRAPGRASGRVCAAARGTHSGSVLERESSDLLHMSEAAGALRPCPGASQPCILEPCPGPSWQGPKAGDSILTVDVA
PKD1 inh – inhibitors of human PKD1 kinase, biochemical, fluorescence polarization; Serine/threonine-protein kinase D1 (Homo sapiens), Q15139; PKD1 kinase fluorescence polarization assay; inhibition, %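 (about 10 µM by stock and volumes)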; actives 0.056% (n = 200,000);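 active means inhibition of 50% or more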;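 further: controls were vehicle for no effect and a reference inhibitor for full effect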
RGS16-Gao HTS – modulators of RGS16 binding to Galphao, primary screen, biochemical, human proteins, multiplexed bead flow cytometry | binding response (% of control), % at 10 µM | actives 0.38% (n = 220,000) | AID 1441, 2008 | bead-based flow cytometry RGS16-Galphao binding, fluorescence; actives lie on both sides;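 active means below 25% or above 175%, edge rows of some plates excepted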;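 further: Galphao activated by GDP with aluminum fluoride before binding; 100% = wells without compound and 0% = beads without RGS; some results beyond the cut were filed as inactive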
Target sequence (O15492 whole entry, looked up): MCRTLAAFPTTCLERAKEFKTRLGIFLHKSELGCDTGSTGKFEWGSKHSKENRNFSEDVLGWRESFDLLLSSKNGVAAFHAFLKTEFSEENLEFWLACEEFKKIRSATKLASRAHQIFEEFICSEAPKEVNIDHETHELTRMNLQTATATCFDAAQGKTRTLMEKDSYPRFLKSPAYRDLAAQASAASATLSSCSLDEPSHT
Target sequence (P09471 whole entry, looked up): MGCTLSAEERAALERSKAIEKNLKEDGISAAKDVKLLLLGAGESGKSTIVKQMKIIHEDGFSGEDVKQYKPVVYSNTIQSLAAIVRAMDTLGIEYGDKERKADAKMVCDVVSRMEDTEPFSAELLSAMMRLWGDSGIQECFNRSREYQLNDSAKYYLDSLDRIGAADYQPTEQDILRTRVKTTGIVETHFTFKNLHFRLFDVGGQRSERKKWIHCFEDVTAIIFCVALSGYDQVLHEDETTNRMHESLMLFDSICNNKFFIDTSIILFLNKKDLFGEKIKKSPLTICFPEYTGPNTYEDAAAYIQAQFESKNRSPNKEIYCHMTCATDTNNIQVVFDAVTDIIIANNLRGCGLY
HSV augment – enhancers of HSV replication in host cells, fold increase, host cell viability. HSV replication augmentation in cells. maximum fold increase. actives 0.005% (n = 220,000). AID 1956, 2009;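 active means peak rise of 1.5-fold or more in the series; inconclusive means self-fluorescent or not available for retest; tested in PC3 cells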;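 further: first round at 10 µM; read as green reporter fluorescence; hits show the peak of a series up to 25 µM; 1 = signal of infected wells without compound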
INS promoter inh cell count – also measured in INS promoter inh; calls as there; normalized cell count, %; measured here: cell count, toxicity; reference of the scale not given here;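 cells exposed to compound for 48 h; stained nuclei by imaging scaled within each plate; lower means fewer cells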
HSV augment primary fold – further read-out of HSV augment, marked with its call; fold increase; compound at 10 µM; measured here: primary screen fold increase 10 uM; tested in PC3 cells;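 GFP signal in the first replicate; 1 = infected wells without compound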
An asterisk follows results filed as active; i = inactive; u = inconclusive; x = not tested or not shown.

SMILES | INS promoter inh | INS promoter inh cell count | GALR2 agonist | PKD1 inh | RGS16-Gao HTS | HSV augment | HSV augment primary fold
Cc1nnc(SCc2ccccc2CSc2nnc(C)s2)s1 | 22.2 | 57.1 | x | -0.1 | 88.4 | i | 1.04
NC(=O)C1CCN(Cc2nc(-c3cccs3)no2)CC1 | x | x | x | x | 101.7 | i | 1.01
Cc1cccc(NS(=O)(=O)c2cc(C(=O)N3CCc4ccccc4C3)ccc2Cl)c1C | -29.2 | 66.3 | -2.5 | -10.5 | 146.7 | i | 0.84
CN1CCN(C(=O)CN(Cc2ccccc2)S(C)(=O)=O)CC1 | 20.0 | 133.9 | -0.4 | -2.5 | 221.2 | i | 1.08
CN1C(=O)c2cccc(NC(=O)C3CCCCC3)c2C1=O | x | x | -3.6 | 5.0 | 99.2 | i | 0.84
COc1ccccc1NC(=O)C(C/C=C(\C)Cl)C(C)=O (configuration not stated) | -64.3 | 93.8 | -1.9 | -1.1 | 99.0 | i | 0.93
COc1ccc2c(c1)c1ncn(CCN3CCCC3)c(=O)c1n2C | 37.1 | 86.2 | 0.0 | -1.3 | 102.5 | i | 0.9
Cc1ccc2cc(C#N)c(NCCNC(=O)C3CC3)nc2c1C | x | x | 3.8 | 8.8 | 99.5 | x | x
COCCCNC(=O)C1CCN(S(=O)(=O)c2c(C)noc2/C=C\c2ccc(OC)cc2)CC1 | 19.5 | 59.8 | -0.5 | -8.0 | 104.1 | i | 0.79
CCCCN(C)C(=O)c1nc2ccccn2c1CNC1CCC1 | x | x | x | 7.2 | 101.5 | i | 1.01
COc1ccc(OCCC(=O)OCC(=O)Nc2ccc(Br)cc2)cc1 | x | x | -0.1 | 1.3 | 97.9 | i | 1.08
C=CCNC(=S)NNC(=O)c1ccccc1OCC | x | x | x | -5.6 | 98.3 | i | 1
CC1(C)Cc2ccccc2-c2nnc(-c3ccc4ccccc4n3)n21 | -344.4 | 71.7 | -3.7 | -6.3 | 18.9* | i | 0.91
O=C(COc1nc2ccccc2nc1N1CCOCC1)Nc1ccc(S(=O)(=O)N2CCCC2)cc1 | -23.1 | 88.7 | 0.1 | -2.7 | 118.3 | i | 1.01
O=C(NNc1ccc([N+](=O)[O-])cc1)C1C2CCCCC21 (configuration not stated) | x | x | -0.8 | -4.2 | 95.8 | i | 1.23
CC(=O)Nc1cc2c(cc1C(C)=O)OCCO2 | 0.0 | 147.0 | 0.8 | -1.2 | 81.6 | i | 0.94
COc1cc(NC(=O)c2cc(C(C)C)on2)c(OC)cc1Cl | -8.3 | 80.8 | -4.0 | 0.4 | 97.8 | i | 1.02
CC(C)CC(=O)N=Nc1c(O)[nH]c2ccccc12 | 18.2 | 170.7 | x | 13.1 | 115.5 | i | 0.94
CCOC(=O)NC(=S)Nc1ccc(OC)cc1 | x | x | x | -6.1 | 105.5 | i | 1.03
CCC1=[N+](C)CCn2c(C)ccc21 | 12.9 | 45.1 | -0.2 | -3.4 | 100.3 | i | 1.08
Cc1c(/C=C(\C#N)c2nn(-c3ccccc3)c(N)c2C#N)c2ccccc2n1Cc1ccc(F)cc1 | -25.0 | 117.4 | -1.0 | -7.7 | 97.2 | x | x
CC(=O)NC1=NC(=O)CS1 | x | x | -0.2 | -3.9 | 98.9 | i | 1.29
O=C(O)CCCCCNC(=O)c1ccc(C(=O)NCCCCCC(=O)O)cc1 | x | x | x | x | 102.6 | i | 0.97
c1ccc(-n2ncc3c(NCCN4CCCCC4)ncnc32)cc1 | x | x | -2.3 | -10.9 | 53.8 | i | 0.72
CCOC(=O)c1c[nH]c(=S)n1C | x | x | x | x | 97.2 | i | 1.03

The list continues:
SMILES | INS promoter inh | INS promoter inh cell count | GALR2 agonist | PKD1 inh | RGS16-Gao HTS | HSV augment | HSV augment primary fold
Cc1cc2ccccn2c1C(=O)c1nc(N2CCOCC2)ncc1Cl | -32.4 | 93.4 | -2.1 | 0.0 | 70.8 | i | 0.91
O=C(CSc1nnc(-c2ccccc2Cl)o1)Nc1ccccn1 | x | x | x | -4.0 | 102.3 | i | 1.02
CC(C(=O)NNS(=O)(=O)c1cccc(C(F)(F)F)c1)n1nnc(N2CCOCC2)n1 (configuration not stated) | x | x | x | x | 82.6 | i | 0.98
COCc1cc(C)nc(N2CCc3ccccc32)c1C#N | 0.0 | 59.1 | -0.2 | 3.0 | 111.1 | i | 0.45
Cc1ccc(NC(=O)COC(=O)C(NS(=O)(=O)c2ccc(Cl)cc2)C(C)O)cc1 (configuration not stated) | -23.1 | 119.8 | -1.1 | 9.9 | 178.2 | x | x
CCC(=O)Nc1cccc(C2=NOC3(C2)C[C@@H](C(N)=O)N(C(=O)c2ccc(OC)cc2)C3)c1 (some centres not stated) | x | x | x | x | 99.6 | i | 0.87
COc1ccc(C(=O)Nc2ccc(Oc3nc(C)nc4sc(-c5ccccc5)cc34)cc2)cc1OC | x | x | -2.0 | 8.6 | 101.5 | i | 0.96
COc1ccc(OC)c(/C=N/NC(=O)CSc2nnc(C)n2-c2ccccc2)c1 | -27.6 | 132.2 | -2.1 | -2.2 | 97.7 | i | 1.08
COc1cc2[nH]c(=O)n(CCC(=O)N3CCc4ccccc4C3)c(=O)c2cc1OC | -32.4 | 108.7 | -1.4 | -3.9 | 50.5 | i | 1.06
CC1CC(=O)Nc2ccccc2N1C(=O)CN1CCN(C=O)CC1 (configuration not stated) | x | x | x | -4.7 | 103.3 | i | 1.03
N#Cc1ccc(-c2ccc(F)cc2)nc1SCC(=O)Nc1sc2c(c1C#N)CCC2 | -65.1 | 133.9 | -0.2 | -0.7 | 92.7 | x | x
CCCn1c(=O)c2ccccc2n2c(Sc3nnnn3-c3ccccc3)nnc12 | x | x | -0.6 | -1.7 | 92.2 | i | 0.85
O=C1c2oc3ccccc3c(=O)c2C(c2cccnc2)N1CCCN1CCOCC1 (configuration not stated) | x | x | 0.0 | 6.4 | 100.8 | i | 0.86
CCOc1ccc(NC(=S)NNC(=O)CC(C)O)cc1 (configuration not stated) | x | x | x | 0.4 | 99.4 | i | 0.96
CCN(CC)c1cc(Cl)c2nonc2c1N | x | x | x | x | 94.2 | i | 0.91
CN1CCN(S(=O)(=O)CC2(C)C3CCC2(C)C(=O)C3Br)CC1 (configuration not stated) | x | x | x | x | 97.3 | i | 1.04
Cc1ccccc1OCC(O)Cn1c(Br)nc2c1c(=O)n(C)c(=O)n2C (configuration not stated) | 13.3 | 161.1 | -2.2 | 5.4 | 85.0 | i | 0.92
Cc1cc(=O)n(CCC(=O)O)c2ccccc12 | x | x | -1.5 | -12.1 | 41.0 | i | 0.98
Clc1ccccc1N/N=C/c1ccc2c(c1)OCO2 | 64.3* | 89.2* | -3.9 | -4.1 | 103.2 | i | 0.9
COc1cc(OC)c(-n2cc(-c3ccc(Cl)cc3)[nH]c2=O)cc1Cl | x | x | 1.3 | -3.2 | 95.4 | i | 0.97
Cc1cc(C)n(-c2cccc(C(=O)O)c2)n1 | 21.4 | 86.4 | x | 1.4 | 130.0 | i | 1.01
O=C(Nc1ccc(-c2nnc(-c3ccccc3)o2)cc1)C1CCCO1 (configuration not stated) | 5.6 | 66.0 | -2.6 | -6.5 | 97.2 | i | 0.92
CCS(=O)(=O)NCc1csc(C)n1 | -121.9 | 61.5 | -0.5 | -11.3 | 88.5 | i | 1.01
O=C(N/N=C/c1ccncc1)c1ccc(COc2cccc3cccnc23)cc1 | x | x | x | 3.7 | 102.8 | i | 0.97
N#Cc1c(NC(=O)CCN2C(=O)c3ccccc3C2=O)oc(-c2ccccc2)c1-c1ccccc1 | 41.9 | 97.8 | -1.8 | -7.8 | 102.8 | u | x

Further structures:
SMILES | INS promoter inh | INS promoter inh cell count | GALR2 agonist | PKD1 inh | RGS16-Gao HTS | HSV augment | HSV augment primary fold
Cc1c(C2C(C#N)=C(N)N(c3cccc([N+](=O)[O-])c3)C3=C2C(=O)CCC3)cnn1C (configuration not stated) | 55.6 | 64.4 | x | 9.1 | 97.6 | i | 0.97
O=C(CSc1ccc(-c2ccccn2)nn1)c1ccc([N+](=O)[O-])cc1 | 41.7 | 144.8 | x | -1.8 | 108.4 | i | 0.97
COC(=O)CSc1nnnn1-c1cccc2ccccc12 | -214.8 | 29.7 | -2.0 | 0.1 | 103.7 | i | 0.87
C[N+]1(CCN2C(=O)C3CC=C(Cl)CC3C2=O)CCOCC1 (configuration not stated) | x | x | -1.6 | -3.4 | 104.1 | i | 0.89
CCOc1ccc(-c2csc(NC(=O)c3cccc(N4C(=O)CCC4=O)c3)n2)cc1 | x | x | x | x | 95.1 | i | 0.98
O=C(c1ccc(F)cc1)N1CCN(C2CCC(c3ccccc3)CC2)CC1 (configuration not stated) | x | x | x | 5.9 | 96.8 | i | 0.98
CCCC(=O)Nc1ccccc1NC(=O)c1ccc(OC)cc1 | 46.1 | 121.7 | x | -2.3 | 96.4 | i | 0.98
CC1=C(C)C(=O)OC(C(C)C2CCC3C4CC=C5CC(OC6OC(COC7OC(CO)C(O)C(O)C7O)C(O)C(O)C6O)CC(O)C5(C)C4CCC23C)C1 (configuration not stated) | x | x | x | -2.9 | 104.8 | i | 0.86
CC(C(=O)NCC1CCCCC1)N(C)Cc1ccc(Cl)cc1 (configuration not stated) | -75.0 | 127.8 | x | -5.2 | 103.3 | i | 1.08
COCCNC(=O)c1ccc2c(c1)nc(C)n2-c1cc(OC)c(OC)c(OC)c1 | 30.3 | 110.2 | -1.2 | -6.4 | 175.1 | i | 0.98
COc1ccccc1NC(=O)CN(c1ccc(C23CC4CC(CC(C4)C2)C3)cc1)S(C)(=O)=O | x | x | -0.9 | 7.4 | 100.3 | i | 1.03
Cc1ccc(C(=O)CSc2cnc3ccccc3n2)cc1C | -12.9 | 102.0 | -1.6 | 3.9 | 102.2 | i | 1.07
CCOC(=O)C1=NN(c2ccc([N+](=O)[O-])cc2)CC1C(=O)OC (configuration not stated) | 7.4 | 169.6 | -0.4 | -1.3 | 98.9 | i | 1.25
Cc1c(N=c2scc(-c3ccccc3)n2CCO)c(=O)n(-c2ccccc2)n1C | x | x | x | 0.8 | 100.8 | i | 1.03
CC(C)(C)OC(=O)N/N=C/c1c[nH]c2ccccc12 | 46.7 | 70.3 | -1.4 | -3.0 | 109.7 | i | 0.93
COc1cccc(NC(=O)CN2C(=O)C3(OCCCO3)c3ccccc32)c1 | x | x | -1.1 | 0.6 | 99.8 | i | 0.86
O=C(O)/C=C/C(=O)NNC(=O)c1ccccc1Br | 13.8 | 146.4 | -1.9 | -1.0 | 99.8 | i | 0.93
CC1(C)CC(=O)C(C=NCCN2CCN(C3CC(=O)N(c4ccc(F)cc4)C3=O)CC2)=C(O)C1 (configuration not stated) | -31.6 | 57.2 | x | -0.4 | 99.1 | i | 1.11
C=CCn1c(=O)/c(=C\c2ccsc2)s/c1=C(/C#N)C(=O)NCCN1CCOCC1 | x | x | 1.6 | -11.4 | 99.6 | i | 0.83
Cc1ccc2nc(/C(C#N)=C\c3cc(O)ccc3[N+](=O)[O-])[nH]c2c1 | x | x | x | 4.7 | 96.7 | i | 1.13
C/C=C\C=C\C(=O)Nc1cccc(C2=NOC3(C2)C[C@H](C(N)=O)N(C(=O)c2ccccc2C(=O)c2ccccc2)C3)c1 (some centres not stated) | x | x | x | x | 106.9 | i | 0.92
CN(c1ccc(C(=O)NCc2cccs2)cc1)S(=O)(=O)c1ccccc1 | 5.9 | 97.8 | x | 4.1 | 100.3 | i | 1.24
COc1cc(NC(=O)C(F)(F)F)cc(OC)c1 | -25.0 | 82.4 | -1.8 | -2.4 | 106.1 | i | 1.14
Cc1ccc(SCCC(=O)Nc2ccc(OCc3ccccc3)cc2)cc1 | 27.8 | 122.3 | -1.7 | -3.7 | 109.8 | i | 0.9
O=C1/C(=C/c2ccccc2[N+](=O)[O-])COc2ccccc21 | x | x | x | -0.9 | 99.5 | i | 0.69
O=C(NCc1ccncc1)Nc1ccccc1 | 10.7 | 75.7 | -1.1 | -5.7 | 100.1 | i | 0.997
Cc1ccc(NC(=O)NC2CCCN2S(=O)(=O)c2ccc(Cl)cc2)cc1 (configuration not stated) | 10.0 | 123.4 | -0.4 | -10.8 | 104.0 | i | 0.84

A stretch taken from the entries so far:
SMILES | INS promoter inh | INS promoter inh cell count | GALR2 agonist | PKD1 inh | RGS16-Gao HTS | HSV augment | HSV augment primary fold
COCCNC(=O)c1ccc2c(c1)nc(C)n2-c1cc(OC)c(OC)c(OC)c1 | 30.3 | 110.2 | -1.2 | -6.4 | 175.1 | i | 0.98
COc1ccccc1NC(=O)CN(c1ccc(C23CC4CC(CC(C4)C2)C3)cc1)S(C)(=O)=O | x | x | -0.9 | 7.4 | 100.3 | i | 1.03
Cc1ccc(C(=O)CSc2cnc3ccccc3n2)cc1C | -12.9 | 102.0 | -1.6 | 3.9 | 102.2 | i | 1.07

Source: PubChem BioAssay (several laboratories)
